Screens as filed in PubChem BioAssay.
MgrA-DNA mod: S. aureus MgrA-DNA binding modulation; fluorescence polarization; inhibition, %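 (about 10 µg/mL by stock and volumes)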; 84,000 tested, 0.13% active; AID 602314;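 active = above 50% in either of two replicates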;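 note: 0% = protein plus DNA without compound and 100% = DNA alone without protein; higher means less MgrA bound to DNA so lower polarization; one replicate is shown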
Sa helicase inh: S. aureus DNA helicase inhibition; 120,000 tested, 0.05% active; purified S. aureus helicase, fluorescence unwinding assay; about half of the hits fall short of the stated cut; inhibition, %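 (tested at about 80 µM)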;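 active = both duplicates at 50% or more, or one of them with a favoured structure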;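 note: 0% = mean of negative control wells and 100% = mean of positive control wells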
Numbers without * were called inactive; nt = not tested or not shown.

SMILES | MgrA-DNA mod | Sa helicase inh
CCC(=S)/C=C1/Sc2ccc(Cl)cc2N1CC | 2.8 | 15
CCOC(=O)Cn1cc(F)c(=O)[nH]c1=O | -0.2 | 10
C/C(=N\Nc1nc(C(C)(C)C)cs1)c1ccc(Cl)c(Cl)c1 | 2.9 | nt
O=C(Cn1c(=O)c(C(F)(F)F)nc2ccccc21)N1CCc2ccccc2C1 | 0.9 | 19
CC(C)(C)Nc1nc(C(=O)O)nc(N2CCOCC2)n1 | -1.4 | 7
O=C(COC(=O)c1n[nH]c2ccccc12)NC1CCCCCC1 | nt | 1
Cc1cc(CSCc2ccc(Cl)cc2)no1 | -1.2 | nt
FC(F)(F)c1ccc(N2CCN(C(=S)NC3CC3)CC2)nc1 | nt | 8
Cc1nnnn1CCC(=O)NC(C)c1ccccc1 (stereo not drawn) | 0.2 | 0
CNC(=O)CSCc1ccc(C(=O)OC)o1 | nt | 11
O=C(C1CCC1)N1CCCC(c2nc3c(nnn3Cc3cccc(Cl)c3)c(=O)[nH]2)C1 (stereo not drawn) | -0.5 | -13
NS(=O)(=O)c1ccc(-n2nc(C(F)(F)F)cc2-c2cccs2)cc1 | -1.0 | nt
CC(C)(C)c1ccc(Cn2c(CN3CCOCC3)nc3ccccc3c2=O)cc1 | nt | 3
COc1cccc(NC(=O)CSc2nccn2-c2ccccc2)c1 | nt | 10
O=S(=O)(c1ccc(NC(=S)NCCc2ccccn2)cc1)N1CCOCC1 | nt | 5
Cn1cnc2cc(NCc3ccco3)ccc21 | -2.8 | 2
Cc1c(C(=O)N2CCCC2)oc2ccc(S(=O)(=O)N3CCCC3)cc12 | -1.1 | 5
O=C1C(Oc2ccccc2)C(c2ccc3c(c2)OCO3)N1C1CCCC1 (stereo not drawn) | 0.6 | 7
CCCCCCCOC(=O)C1=C(C)NC(=O)NC1c1cc(Br)c(O)c(OC)c1 (stereo not drawn) | 1.7 | nt
N#CCN(CC#N)C(=O)C1CC(=O)N(c2ccc(F)cc2)C1 (stereo not drawn) | -1.9 | 18
Cc1nnc(-n2cccc2)s1 | -2.3 | nt
COc1cc(/C=C(/NC(=O)C2CCCCC2)C(=O)N2CC3CC(C2)c2cccc(=O)n2C3)cc(OC)c1OC (stereo not drawn) | nt | 6
CCCc1oc(C(=O)O)cc1CN(CC)CC | -7.3 | 0
CC1CN(C(=O)c2ccccc2)OC(c2cccs2)O1 (stereo not drawn) | nt | 2
CCc1nnsc1C(=O)Nc1nc2ccc(C)cc2s1 | nt | 1
CC(NC(=O)C(c1ccccc1)c1ccccc1)c1ccccc1 (stereo not drawn) | nt | -25
CC(C)c1nc(N)n[nH]1 | nt | 9
CCNc1nc(NCC)nc(N(C)N)n1 | 1.9 | -5
CCOC(=O)C1=CNc2ccccc2S1 | 1.2 | -2
O=C(CC(c1ccccc1)c1cc(Cl)ccc1O)N1CCCCC1 (stereo not drawn) | 4.3 | 8
O=C(NCc1cccs1)C1(c2ccccc2)CC1 | nt | -5
Cc1nnc(NC(=O)C(C)Sc2nncn2C)s1 (stereo not drawn) | nt | -14
O=C(c1ccc(-c2ccccc2)cc1)c1cc2cc([N+](=O)[O-])ccc2o1 | -2.2 | nt
O=C1OCc2c1[nH]c(=O)[nH]c2=O | 0.8 | 3
CCOc1ccc(NCc2cn3cccnc3n2)cc1 | nt | 2
CC(C)c1ccc(/C=N/n2nnnc2Nc2ccccc2)cc1 | 6.1 | 16
C/C(N)=C(/C#N)C(=O)CSc1nc2ccccc2c(=O)n1Cc1ccc(C)cc1 | nt | 16
CN(C)c1ccc(/C=C2\C(=O)Nc3ccccc32)cc1 | 2.7 | nt
Cc1cc2[nH]c(=O)c3ccccc3n2n1 | nt | -12
Cn1c(=O)c2c(nc(NCc3ccc4c(c3)OCO4)n2Cc2cccc(F)c2)n(C)c1=O | 3.8 | nt
O=S(=O)(c1ccc(Cl)cc1)n1ccc(-c2ccc(Br)s2)n1 | nt | -39
Nc1ccc(-c2csnn2)cc1 | -0.1 | nt
COc1ccc(-c2c(C#N)sc(C(N)=O)c2-c2ccc(OC)cc2)cc1 | -1.6 | nt
Cc1cccc(C)c1NC(=O)C(NC(=O)c1ccc(-n2cnnn2)cc1)c1ccccc1 (stereo not drawn) | -2.2 | 18
N#Cc1cccc(C(c2nnnn2Cc2ccc(F)cc2)N2CCc3ccccc32)c1 (stereo not drawn) | 1.1 | -4
CN1CCN(C(=O)Nc2ccc(Cc3ccc(NC(=O)N4CCN(C)CC4)cc3)cc2)CC1 | -0.8 | 1
O=C(COC(=O)c1ccccc1F)Nc1ccccc1 | -3.7 | -28
CC(NC(=O)NCc1ccccc1)c1ccccc1 (stereo not drawn) | 7.9 | 7
c1ccc(-c2nsc(N3CCNCC3)n2)cc1 | -2.0 | nt
COc1ccc(C(=O)CNc2ccccc2Br)cc1 | -0.6 | -4

The list goes on:
SMILES | MgrA-DNA mod | Sa helicase inh
O=C(O)C1CC2C=CC1O2 (stereo not drawn) | 2.7 | 10
O=C(c1ccccc1)c1ccc2c(c1)OCCCO2 | -2.3 | nt
CCCc1nnc(SCC(=O)N2CCCCC2C)n1CC (stereo not drawn) | 3.7 | 13
CCC(CC)C(=O)OCc1csc(Nc2ccccc2)n1 | nt | 1
Cc1ccc(N2CC(=O)N(/N=C/c3ccncc3)CC2=O)cc1 | nt | 3
COc1cccc(C(=O)/C=c2\[nH]c(=O)/c(=C\c3cccs3)s2)c1 | -1.6 | nt
COc1cccc(-n2nnc3c(=O)n(CC(=O)c4ccc(Cl)cc4)cnc32)c1 | -1.1 | 10
COC(=O)c1cc(C(=O)OC)c(C)nc1C | 0.8 | -4
N/C(=N/S(=O)(=O)c1ccccc1)N1CCCCC1 | nt | 17
CC1CCCN(C(=O)c2cccc(Cl)c2)C1 (stereo not drawn) | 9.5 | 9
COCCNC(=O)c1c[nH]n2c(=O)c(Cc3ccc(Cl)cc3)c(C)nc12 | nt | 14
CCCCn1c(N)nc2ccccc21 | 2.1 | 11
O=C(c1ccc(NS(=O)(=O)/C=C/c2ccccc2)cc1)N1CCN(c2ncccn2)CC1 | nt | -4
Cn1cc(CC(=O)NCCN2CCOCC2)c2ccccc21 | nt | 9
CC(Oc1cccc(Br)c1)C(=O)NN (stereo not drawn) | nt | 27
CC(=O)Nc1ccc(S(=O)(=O)NC(C)C)cc1 | -6.2 | 13
CCOC(=O)c1[nH]c(C)c(C(=O)N2CCC(C(=O)OCC)CC2)c1C | nt | 15
N#CSCC(=O)c1cccc2ccccc12 | -6.5 | 4
COc1ccc2cc(COC(=O)c3ccc(Br)o3)c(Cl)nc2c1 | nt | -5
Cc1ccccc1SCC(=O)O | -1.8 | 3
CCOC(=O)c1c(NC(=O)c2ccccc2)sc2c1CCC2 | -0.5 | -20
CC1=C2CCCC2CC/C1=N\NC(N)=O (stereo not drawn) | 0.1 | nt
COc1cccc(/C=C2/SC(=S)N(CCC(=O)N3CCCCC3)C2=O)c1 | nt | -5
O=C(CN1C(=O)/C(=C/c2ccccc2Cl)SC1=S)Nc1ccccc1C(F)(F)F | 2.0 | -6
Cc1c(OC(=O)c2ccco2)ccc2c(=O)c(-c3nc4ccccc4s3)coc12 | 0.3 | 9
Cc1cc(OCc2nc(-c3ccc(OCC(N)=O)cc3)no2)cc(C)c1Cl | 0.5 | 10
CCOC(=O)c1oc2c(CN3CCN(C)CC3)c(O)ccc2c(=O)c1-c1ccc(OC)cc1 | -0.8 | 14
CCCCN(Cc1cc2cccc(C)c2[nH]c1=O)S(=O)(=O)c1ccccc1 | 0.6 | 5
c1coc(CNCC2OCc3ccccc3CO2)c1 | -4.2 | 4
Cc1nnc2n1NC(=Nc1ccc(Br)cc1)CS2 | nt | -14
O=C(c1cnc2ccccn12)C(F)(F)Sc1ccccc1 | -2.6 | nt
N#CCCN(C(=O)c1cncc(Br)c1)c1ccccc1F | 0.3 | -24
Cc1oc(-c2ccc(Cl)cc2)cc1C(=O)N1CCCC1 | 2.6 | nt
CC(=O)Nc1ccc(C(F)(F)F)cc1[N+](=O)[O-] | 1.5 | nt
CC[n+]1ccccc1/C=C/N(C(C)=O)c1ccccc1 | 1.4 | 5
CC(C)(C)OC(=O)NC1CCN(C(=O)NC2CCCCC2)CC1 | -0.1 | 8
O=C(NCc1ccco1)NC1CC(=O)N(c2ccccc2)C1 (stereo not drawn) | nt | 0
CCOc1ccc(N2C(=O)CC(Cc3ccccc3OC)C2=O)cc1 (stereo not drawn) | nt | -26
CSc1cccc(NC(=O)CSc2nnc(Cc3ccccc3)o2)c1 | -1.7 | 19
O=C(O)COc1cccc2nsnc12 | -1.6 | 19
COC(=O)C1=NOC2C(=O)N(c3ccc(OC)cc3)C(=O)C12 (stereo not drawn) | -2.4 | 10
Clc1cccc(NCc2nnc(SCc3ccccc3)o2)c1 | -1.8 | 4
CCCCOC(=O)c1ccc(OC(=O)c2cccnc2)cc1 | nt | -1
Cc1nonc1OCC12CC3CC(CC(C3)C1)C2 | 2.0 | 10
O=C(NCCc1nnc2ccc(N3CCCCCC3)nn12)c1ccccc1 | nt | 6
CC(NC(=O)c1ccccc1C(=O)O)C12CC3CC(CC(C3)C1)C2 (stereo not drawn) | -0.7 | 8
OC(CN1CCC(O)(c2ccc(Cl)cc2)CC1)c1ccccc1 (stereo not drawn) | -3.6 | nt
NC1=NC(c2ccccc2)n2c(nc3ccccc32)N1 (stereo not drawn) | nt | 40
O=S(=O)(c1ccc(Cl)cc1)N1CCCC1c1nc(-c2ccccc2)no1 (stereo not drawn) | 0.0 | -1
O=C(O)CCNC(=O)c1ccc(NC(=O)C(c2ccccc2)c2ccccc2)cc1 | 0.2 | 13

5 entries from above, in CSV form.
smiles,MgrA-DNA mod,Sa helicase inh
CCCCCCCOC(=O)C1=C(C)NC(=O)NC1c1cc(Br)c(O)c(OC)c1 (stereo not drawn),1.7,nt
N#CCN(CC#N)C(=O)C1CC(=O)N(c2ccc(F)cc2)C1 (stereo not drawn),-1.9,18
Cc1nnc(-n2cccc2)s1,-2.3,nt
COc1cc(/C=C(/NC(=O)C2CCCCC2)C(=O)N2CC3CC(C2)c2cccc(=O)n2C3)cc(OC)c1OC (stereo not drawn),nt,6
CCCc1oc(C(=O)O)cc1CN(CC)CC,-7.3,0

(list continues)
SMILES | MgrA-DNA mod | Sa helicase inh
Nc1ncnc2nc(SCCC(=O)O)[nH]c12 | nt | -32
CCCCC(=O)NC(c1ccco1)c1cc(Cl)c2cccnc2c1O (stereo not drawn) | nt | -25
Cc1nn(-c2ccccc2)cc1C1C=C(c2ccc(Cl)cc2)N=C2SCC(=O)N21 (stereo not drawn) | 4.0 | nt
COc1ccc2c(c1C)CCC(C1(O)C(=O)N(C)c3ccccc31)C2=O (stereo not drawn) | -2.8 | 7
COc1ccc(Cc2n[nH]c(=S)o2)cc1 | nt | 3
CC(C)(C)c1csc(NC2=NCCC2)n1 | nt | -4
O=C(N/N=C/c1cccs1)C1=COCCO1 | nt | -11
COc1ccc(C2Nc3cc(Cl)ccc3O2)cc1 (stereo not drawn) | -0.2 | nt
N#CCN(CC#N)S(=O)(=O)c1cc(Cl)ccc1Cl | 2.8 | 10
COc1ccccc1NC(=O)c1c[nH]c2ccccc12 | -2.7 | nt

Molecules shown so far containing a COOH group, in the order listed:
SMILES | MgrA-DNA mod | Sa helicase inh
CC(C)(C)Nc1nc(C(=O)O)nc(N2CCOCC2)n1 | -1.4 | 7
CCCc1oc(C(=O)O)cc1CN(CC)CC | -7.3 | 0
O=C(O)C1CC2C=CC1O2 (stereo not drawn) | 2.7 | 10
Cc1ccccc1SCC(=O)O | -1.8 | 3
O=C(O)COc1cccc2nsnc12 | -1.6 | 19
CC(NC(=O)c1ccccc1C(=O)O)C12CC3CC(CC(C3)C1)C2 (stereo not drawn) | -0.7 | 8
O=C(O)CCNC(=O)c1ccc(NC(=O)C(c2ccccc2)c2ccccc2)cc1 | 0.2 | 13
Nc1ncnc2nc(SCCC(=O)O)[nH]c12 | nt | -32

Other results:
SMILES | MgrA-DNA mod | Sa helicase inh
COC(=O)c1ccc(OC)c(CN2CCN(Cc3ccccc3Cl)S2(=O)=O)c1 | nt | 4
COc1cccc2c(=O)cc(C)n(CC(=O)Nc3ccccc3)c12 | nt | -21
O=C(COc1ccccc1)N(Cc1ccccc1O)c1ccccc1Cl | 2.0 | -7
COC(=O)c1cccc(NC(=O)C2COc3ccccc3O2)c1C (stereo not drawn) | -1.2 | -4
Cc1ccn2cc(C(=O)NC3CCCCC3)nc2c1 | -0.8 | 1
CN(C(=O)c1cccs1)c1ccccc1C(=O)O | nt | 13
CN(C)C=NC1=NN(c2ccccc2)CC1 | nt | 8
Cc1c(NC(=O)c2cccc3c(Br)cccc23)cccc1-c1nc2cc(Cl)ccc2o1 | 1.5 | nt
CC(=O)NC1CC(C)(C)NC(C)(C)C1 | 0.6 | 8
CCc1[nH]nc2c1C(c1ccccc1)C(C#N)=C(N)O2 (stereo not drawn) | -0.5 | nt
CC1(C)CC(=O)C(C(c2ccc(Cl)cc2)C(C#N)C(N)=S)=C(O)C1 (stereo not drawn) | 11 | 11
Cc1cc(C(=O)Nc2ccccc2N2CCCCC2)nn1C | 1.3 | nt
CCc1ccccc1N1CC(C(=O)O)CC1=O (stereo not drawn) | -2.7 | -3
O=C(Nc1ccc(N2C(=O)C3C4C=CC(C4)C3C2=O)cc1)Nc1nncs1 (stereo not drawn) | 2.8 | 17
COc1cc(NC(C)C(=O)N2CCCC2)cc(OC)c1OC (stereo not drawn) | nt | -4

Only part of the results is shown (hit frequency here may not be typical).
